# Calb biofilm kill – mixtures killing C. albicans biofilm; C. albicans biofilm persisters + clotrimazole, fluorescence viability; primary screen in compound mixtures of four per well; 120,000 compounds, 0.02% hits; inhibition, % at 7.6 µM;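 active = inhibition above 30.3% in the primary screen of four-compound pools, then above 30% when the compound was retested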;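 note: compounds exposed to preformed 24 h biofilms for 48 h; the number belongs to the whole pool; some results filed as inactive read as strong as hits; inactives centre near 12; 0% = biofilm with clotrimazole alone and 100% = kill control; retested singly at about 60 µM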
#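 Probe or stimulus – Clotrimazole 50 µg/mL co-treatment · System – C. albicans biofilms · Schedule – 24 h biofilm formation, then 48 h compound exposure, 37 °C · Evaluation – percent inhibition of biofilm viability · Technique – 2-h Alamar Blue fluorescence, 535/590 nm excitation/emission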
# Active calls of the source: *.
SMILES	Calb biofilm kill
COc1ccc(CN2CCN(CC=C(C)C)C(CCO)C2)cc1Cn1cncn1 (stereo unspecified)	29
CCOC(=O)c1[nH]c2ccccc2c1NC(=S)Nc1ccccc1	8
CC1CC(C)CN(C(=S)Nc2ccc(OC(F)F)cc2)C1 (stereo unspecified)	14
O=C(/C=C/Nc1ccc(Oc2ccccc2Cl)cc1)c1ccco1	10
COC(=O)C(C)N(c1ccc(OC)cc1)S(C)(=O)=O (stereo unspecified)	-2
CCCSC1=N/C(=C\c2ccc([N+](=O)[O-])o2)C(=O)S1	12
Cc1nc2ncnn2c(N2CCN(S(=O)(=O)c3ccc(Br)cc3)CC2)c1C	8
CC(C)Cc1nc2oc3c(Cl)ncnc3c2c2c1CCCC2	20
Cc1ccc(NC(=O)CSc2ccc(-c3ccc4c(c3)OCO4)nn2)cc1F	1
CC(C)(C)c1cc(C(=O)NC2CC2)n(Cc2ccc(F)cc2)n1	21
CC(C)c1ccc(/C=N/N2CCN(c3ccccn3)CC2)cc1	19
OC1(c2cccs2)CN(c2ccc(Cl)cc2)C2=[N+]1CCCC2 (stereo unspecified)	6
O=C(N/N=C/c1ccc(OC(F)F)cc1OC(F)F)NC1CCCCC1	7
COCCNC(=O)C(c1cccnc1)N(Cc1ccc(C)cc1)C(=O)Cn1nnc2ccccc21 (stereo unspecified)	6
O=C(c1cc2c([nH]c1=O)CCCC2)N1CCc2c([nH]c3ccccc23)C1c1ccccc1F (stereo unspecified)	0
COc1ccc(Cn2nnnc2C(c2cc3cc(C)ccc3[nH]c2=O)N2CCN(C)CC2)cc1 (stereo unspecified)	-1
CCN(CC)S(=O)(=O)c1cc(C(=O)c2nccn2C)ccc1Cl	8
C/C(=N\Nc1ncc(Cl)cc1Cl)c1ccc(C#N)cc1	15
Cc1ccc(OCC(=O)N/N=C\c2ccc(O)cc2)c([N+](=O)[O-])c1	4
COc1cc(/C=C/C(=O)N2CCCN(C(=O)/C=C/c3cc(OC)c(OC)c(OC)c3)CC2)cc(OC)c1OC	4
COc1ccc(NC(=O)CSc2ccc(-c3cccs3)nn2)c(OC)c1	15
C/C(=N/NC(=O)c1ccncc1)C1=C(O)CC(C)(C)CC1=O	14
O=C(NCC(c1ccco1)N1CCOCC1)c1cccc([N+](=O)[O-])c1 (stereo unspecified)	15
C=C1[C@@H](C)C2[C@H](Cc3ccccc3)NC(=O)[C@]23OC(=O)CC[C@H](O)CCC[C@H](C)C/C=C/[C@H]3[C@@H]1O (stereo partly specified)	18
O=C(Cc1ccccc1)NC1(O)C(=O)c2ccccc2C1=O	21
O=C([C@H](Cc1ccc(O)cc1)n1cc(CCO)nn1)N1CCNCC1	20
CC(C)(C)SCCNC(=O)/C=C/c1cccc([N+](=O)[O-])c1	3
O=C(Nc1nc2ccccc2[nH]1)C1CCCC1	0
NC(=S)NNC(=O)[C@@H]1CCCC[C@@H]1C(=O)O	4
CN(Cc1nc2ccc(F)cc2[nH]1)Cc1c(C(=O)N(C)C)nc2ccc(Cl)cn12	26
COc1cc(O)c(C(CCN2CCN(c3ccccc3)CC2)c2ccc(N(C)C)cc2)c(OC)c1 (stereo unspecified)	6
CCOC(=O)c1cnn(CCOC(=O)c2ccccc2F)c1NC(=O)c1ccccc1F	4
CCCCOc1ccc(C(=O)NCC2(c3ccc(OC)cc3)CCOCC2)cc1	11
O=C(CCc1ccccc1)Nc1ccc(N2CCOCC2)c(Cl)c1	9
CCOC(=O)c1ccc(NC(=O)CN2C(=O)NC3(CCCCCC3)C2=O)cc1	12
COc1cc(/C=N/NC(=O)/C(=C\c2ccc3c(c2)OCO3)NC(=O)c2ccccc2)ccc1O	4
COc1ccc(-c2ccc(OC)c([C@H]3[C@@H]4C=CCC[C@@]4(C)C(=O)N3Cc3ccccc3)c2)cc1OC	12
Nn1c(Nc2ccc(Cl)cc2)nncc1=O	10
COc1ccc(NC(=O)C2CCCN2C(=O)Oc2ccccc2)cc1 (stereo unspecified)	18
COc1ccc(-c2cn[nH]c2C)cc1	17
CCN(CC)S(=O)(=O)c1ccc(Cl)nc1	4
CN(C)S(=O)(=O)c1ccc(C(=O)N2CCN=C2SCc2ccccc2)cc1	17
O=c1cc[nH]c2ccc(Cl)cc12	-2
COC(=O)c1ccccc1NC(=O)N1CCN(c2ccc(OC)cc2)CC1	18
N/C(=N\OC(=O)COc1ccccc1)c1ccncc1	11
CNc1nc(-c2ccc3c(c2)CCN3C(=O)c2cccc(F)c2)cs1	18
N#Cc1c(N)nc2c(c1-c1ccc(F)cc1)c(=O)nc1sccn12	10
COc1ccc(N(CC(=O)NCCC2=CCCCC2)S(=O)(=O)c2ccccc2F)cc1	17
COc1ccc(C(=O)OCC(=O)Nc2cc(C)on2)c(OC)c1OC	20
CC(C)NC(=S)NN=C1CCC(c2ccccc2)CC1 (stereo unspecified)	5
CCCCCCc1cc2cc(C(=O)OCC)c(=O)oc2cc1O	21
COC(=O)c1ccc(NC(=S)N2CCCC2)cc1	12
Cc1ccc(NC(=O)N2N=C(c3ccc(F)cc3)CC2c2ccc(F)cc2)cc1 (stereo unspecified)	16
C=CCOc1ccc(/C=N/NC(=O)C(C)Sc2ccccn2)cc1OCC (stereo unspecified)	11
COc1ccc(N=Nc2cc(C)ccc2O)cc1	20
COC(=O)/C(C#N)=C/c1ccc(OC(=O)c2ccccn2)cc1	8
S=C(Nc1ccc(Cl)cc1)NC1CC2CCC(C1)N2Cc1ccccc1 (stereo unspecified)	11
COCCSc1nnc(NC(=O)c2ccc(NC(=O)C(C)C)cc2)s1	26
CCN(CC)S(=O)(=O)c1ccc(C)c(NC(=O)COC(=O)CNC(=O)c2ccc(C(C)(C)C)cc2)c1	13
Cc1nn(CCC#N)c(NC(=O)c2ccccc2)c1P(=O)(Nc1ccc(Br)cc1)N1CCOCC1 (stereo unspecified)	7

# Additional records follow.
SMILES	Calb biofilm kill
COc1cc(O)c(C(CC(=O)N2CCN(c3ccccc3)CC2)c2ccc3c(c2)OCO3)c(OC)c1 (stereo unspecified)	14
CC1(c2ccc([N+](=O)[O-])c(CS(=O)(=O)c3ccccc3)c2)OCCO1	15
COc1ccc(-c2nc3ccccn3c2NCc2ccc3c(c2)OCO3)cc1	10
COc1cc(OC)cc(-c2nnc(SCC(=O)Nc3ccc(C(=O)O)cc3)s2)c1	14
O=C(O)c1cc(-c2ccc(Cl)s2)[nH]n1	26
Nc1c(Cl)ncnc1NCC(O)CO (stereo unspecified)	20
O=C(N/N=C/c1cc(Br)cc(Br)c1O)c1cccc(S(=O)(=O)N2CCOCC2)c1	9
O=C(N/N=C/c1ccc2c(c1)OCO2)c1ccc2c(c1)OCCO2	15
CC(=O)Nc1ccc(S(=O)(=O)NCC(CCC(=O)O)C(F)(F)F)cc1 (stereo unspecified)	15
COc1ccc(C(=O)/C=C/c2cc(C(=O)O)cc3c2OCOC3)c(O)c1	9
CC(=O)c1cccc(N(C(=O)CS(=O)CC(=O)Nc2ccc(F)cc2)C(C(=O)NC2CCCCC2)c2ccc(C)o2)c1 (stereo unspecified)	20
COC(=O)c1cn(NC(=O)Cc2cccc(C(F)(F)F)c2)c(=O)c2ccccc12	12
CN(C(=O)COC(=O)c1sc2ccccc2c1Cl)C1CCCCC1	5
Cc1cnc(C(=O)OCC(=O)c2cc(C)n(C)c2C)cn1	5
O=C(C1CC(Cl)CN1S(=O)(=O)c1ccc(Cl)cc1)N1CCOCC1 (stereo unspecified)	-8
CCN(CC)S(=O)(=O)c1ccc(N=Nc2c(N)[nH]c(=O)[nH]c2=O)cc1	16
CC(CNC(=O)c1ccc(N)cc1)NC(=O)c1ccc(N)cc1 (stereo unspecified)	13
Fc1ccc(CN2CCN(C(=S)NCCc3ccccc3)CC2)c(Cl)c1	2
CCCCN(c1ccccc1)S(=O)(=O)c1cccc2cccnc12	14
COc1ccccc1OCC(O)CNCc1ccc2c(c1)OCO2 (stereo unspecified)	19
Cc1ccc(S(=O)(=O)NCc2ccc3[nH]c(C)cc3c2)cc1	13
Cc1ccc(NC(=O)c2ccc(CSc3ccccn3)cc2)c(O)c1	11
Cc1ccc(S(=O)(=O)c2nnn3c2nc(Nc2cccc(C)c2)c2ccccc23)cc1	7
CCn1c(=O)c(C(C)=O)c(O)c2ccccc21	13
CCc1ccc(OCCCC(=O)NCc2ccco2)cc1	21
O=C(Oc1ccc(Br)cc1)c1n[nH]c(=O)c2ccccc12	15
COCc1cc(C)nc(SCC[N+](C)(C)CC(=O)Nc2cccc(C(F)(F)F)c2)c1C#N	7
O=C(NC1(O)C(=O)c2ccccc2C1=O)c1c(Cl)cccc1Cl	29
Nc1ccc(S(=O)(=O)Nc2cnc3ccccc3n2)cc1	13
CCOc1cc(/C=N/n2c(C)nc3sc(C)c(C)c3c2=O)ccc1O	-5
CN(C)CCN(Cc1cccs1)c1ccccn1	12
Cn1cc(CN(CCO)Cc2cccs2)c(-c2cccc(Cl)c2)n1	7
O=C(NCCCl)NNc1c(Cl)cc(Cl)cc1Cl	7
COc1ccc(C(CNC(=O)c2cc(F)c(F)c(F)c2F)N2CCOCC2)cc1 (stereo unspecified)	17
O=C(NCC(c1ccc(F)cc1)N1CCOCC1)c1c(F)cccc1F (stereo unspecified)	14
CCN1CCN(C(=S)NCCOC)CC1	13
CN(C)c1ccc(SC#N)cc1	12
CNC(=S)NCCN1CCOCC1	18
COc1ccc(N(CC(=O)Nc2cccnc2)S(C)(=O)=O)cc1	6
Cc1cccc2[nH]c(SCC(=O)O)nc12	15
Cc1ccc(NC(=O)c2sc3nc(CCl)[nH]c(=O)c3c2C)c(C)c1	9
S=c1[nH]nc(Cc2ccc(Cl)cc2)n1-c1ccc2c(c1)OCCO2	-18
O=C(Nc1ccc([N+](=O)[O-])cn1)c1ccc(Br)o1	15
O=[N+]([O-])c1ccc(O)c(/C=N/NC(=S)Nc2ccc(Cl)cc2Cl)c1	14
CC(C)N1CC(C(=O)Nc2ccccc2)CC1=O (stereo unspecified)	8
O=C(O)Cc1nn(Cc2ccc(Cl)cc2)c(=O)c2ccccc12	12
COc1ccc(OC)c(Cc2nnc(CCC(=O)NC3CCCCCCC3)o2)c1	-1
Cc1nc(N(C)C)c2sc(=S)n(Cc3ccccc3)c2n1	15
CN1CCN(c2ccccc2NC(=O)c2ccc(N3CCCCC3)c([N+](=O)[O-])c2)CC1	16
COc1ccc(-c2onc(C)c2-c2cscn2)c(O)c1	22
Cc1nnc(SCC(=O)c2ccccc2F)n1Cc1ccccc1	14
Cc1ccc2sc(NC(=O)CN3C(=O)c4ccccc4C3=O)nc2c1C	9
C[C@H](NC(N)=O)C(=O)Nc1ccc(OCc2ccccc2)cc1	1
COC(=O)c1cc(Br)ccc1NC(=O)Nc1ccccc1	20
CNC(=S)Nc1ccc(Cc2ccncc2)cc1	18
O=CN1CCc2scc[n+]2-c2ccccc21	14
CCOc1ccc(OCCCCn2cnc3ccccc3c2=O)cc1	6
Cc1onc(-c2ccccc2)c1CNS(=O)(=O)c1cccc(Br)c1	6
COc1ccccc1NS(=O)(=O)c1cc(NC(=O)CCNC(C)=O)ccc1C	11
Cc1ccc(P(=O)(CSC(=N)N)c2ccc(C)cc2)cc1	16

# Three entries from above in another layout:
structure: O=C([C@H](Cc1ccc(O)cc1)n1cc(CCO)nn1)N1CCNCC1
  Calb biofilm kill: 20

structure: CC(C)(C)SCCNC(=O)/C=C/c1cccc([N+](=O)[O-])c1
  Calb biofilm kill: 3

structure: O=C(Nc1nc2ccccc2[nH]1)C1CCCC1
  Calb biofilm kill: 0

# The listing continues:
SMILES	Calb biofilm kill
NC(=O)c1ccsc1NC(=O)COC(=O)COc1ccccc1F	14
CCc1nnc(NC(=O)CSc2nnc(-c3cccnc3)n2C)s1	11
CCOC(=O)C1=C(O)/C(=C/c2ccc(OCC(=O)O)c(OCC)c2)SC1=Nc1ccc(OC)cc1	13
COC(=O)Cc1cc(=O)[nH]c(/N=C(\N)Nc2cccc(C)c2)n1	4
CC1CN(C)C(C)C/C1=N\Oc1ccc([N+](=O)[O-])cc1 (stereo unspecified)	20
O=C(CN1CCCCC1)N/N=C/c1ccccc1OCc1ccccc1	6
Cc1ccc(CNC(=S)NCc2ccncc2)cc1	21
Cc1ccc(C(=O)NC(=S)Nc2ccc3[nH]c(=O)[nH]c3c2)cc1C	16

# Looked up by compound from the entries so far, 2 records:
SMILES	Calb biofilm kill
CCc1nnc(NC(=O)CSc2nnc(-c3cccnc3)n2C)s1	11
NC(=O)c1ccsc1NC(=O)COC(=O)COc1ccccc1F	14

# An excerpt of these results, with each value named:
molecule: NC(=O)c1ccsc1NC(=O)COC(=O)COc1ccccc1F
  Calb biofilm kill = 14
molecule: CCc1nnc(NC(=O)CSc2nnc(-c3cccnc3)n2C)s1
  Calb biofilm kill = 11

# Screening results: PubChem, PCMD

# Only part of the results is shown, so the mix of outcomes need not match the whole.
